PK Bst: Pyruvate Kinase; partly purified Bacillus stearothermophilus pyruvate kinase, luminescence ATP production; ribose 5-phosphate activator present at AC10; Potency, µM; actives 1.2% (n = 51,000); in the data active means potency below about 11 µM; inconclusive means mostly about 12 µM to 25 µM; inactive means weaker than that;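 the screen sought inhibitors and activators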;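 note: potency is the fitted concentration of half-maximal effect; scaled between full activation by ribose 5 phosphate and full inhibition by luteolin; about four in five hits inhibit and the cells do not say which; series up to 57 µM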
YjeE inh: qHTS Assay for Inhibitors of YjeE; tRNA threonylcarbamoyladenosine biosynthesis protein TsaE (Escherichia coli (strain …; purified YjeE, fluorescence polarisation of a bound ADP probe; Potency, µM; actives 0.05% (n = 71,000); AID 605, 2007; active = well fitted falling curve; inconclusive = weaker or top-dose-only fall, or a rising curve; inactive = flat or poorly fitted curve;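 note: top concentration of the series not given in the record; excess ADP was the control for the full effect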
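Fluorescence polarization of a BODIPY Texas Red–ADP probe (2 uM) bound to purified YjeE (10 uM) was read after 15 min room-temperature incubation with compounds. Loss of polarization marks inhibitors; ADP serves as titrated control.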
Active calls of the source: *; i = inactive; ? = inconclusive; / = no result given. A portion of the library, so the mix of outcomes need not match the whole.

SMILES	PK Bst	YjeE inh
O=P(c1ccccc1)(c1ccccc1)N1CCCCC1	>26	/
S=C1NCCN1	/	i
Nc1cccc(N=Cc2c(O)n(Cc3ccc(F)cc3)c(=O)[nH]c2=O)c1	>57	i
COc1ccc(C2=NCC(=O)N(CC(=O)NCc3ccco3)c3sc4c(c32)CCCC4)cc1OC	>57	i
CCOc1ccc(-n2c(O)c(C=Nc3ccc(N4CCOCC4)cc3)c(=O)[nH]c2=O)cc1	/	i
NC(N)=Nc1ccc2[nH]c3c(c2c1)C[C@]1(O)[C@@H]2Cc4ccc(O)c5c4[C@]1(CCN2CC1CC1)[C@H]3O5	/	i
CCC(=NCc1ccco1)c1c(O)n(-c2ccc(OC)cc2)c(=O)[nH]c1=O	?	i
COC(=O)N(c1ccc(OC)cc1)P1(=S)OCCC(C)O1 (stereo not drawn)	>57	i
CC1=C2C(=O)[C@@H]3[C@@H](CC=C4C[C@@H](O)CC[C@@]43C)[C@H]2CC[C@@]12O[C@H]1C[C@H](C)CN[C@H]1[C@@H]2C	/	i
COC(=O)CC1(Cc2ccccc2)C(=O)NC(=O)NC1=O	>57	i
Nc1ccc(-c2ccc(N)cc2)cc1	/	i
CSC([N-]/N=C/c1cccc(C)n1)=[S]=[Cu].CS[C@H]([S-])[N-]/N=C/c1cccc(C)n1	/	i

Whole records as entered above. Screens in order: PK Bst | YjeE inh
COC(=O)N(c1ccc(OC)cc1)P1(=S)OCCC(C)O1 (stereo not drawn) is listed with >57 | i
CCC(=NCc1ccco1)c1c(O)n(-c2ccc(OC)cc2)c(=O)[nH]c1=O is listed with ? | i
O=P(c1ccccc1)(c1ccccc1)N1CCCCC1 is listed with >26 | /
Nc1cccc(N=Cc2c(O)n(Cc3ccc(F)cc3)c(=O)[nH]c2=O)c1 is listed with >57 | i
CC1=C2C(=O)[C@@H]3[C@@H](CC=C4C[C@@H](O)CC[C@@]43C)[C@H]2CC[C@@]12O[C@H]1C[C@H](C)CN[C@H]1[C@@H]2C is listed with / | i

Going on with the list.
SMILES	PK Bst	YjeE inh
NC12CN3CN(CN(C3)C1)C2 (tested in a mixture with another compound)	>57	i
Cc1ccc(S(=O)(=O)Cc2ccc(C(=O)N3CCC4(CC3)OCCO4)o2)cc1	>57	i
CCNCC	/	i
CC(=Nc1ccc2c(c1)CCC2)c1c(O)n(C2CCCCC2)c(=O)[nH]c1=O	>57	i
CCN(CC)c1ccc(N=Cc2c(O)n(-c3cc(OC)ccc3OC)c(=O)[nH]c2=O)cc1	>26	/
C[N+]1(C)CCO[C@](O)(c2ccc(-c3ccc([C@]4(O)C[N+](C)(C)CCO4)cc3)cc2)C1	/	i
CCCCNC(=O)Nc1ccc(C(O)(C(=O)OCC)C(F)(F)F)cc1 (stereo not drawn)	>26	/
O=C(O)[C@@H](Br)[C@H](Br)C(=O)O	/	i
CN(C)c1cc(N)c2c(n1)CCC2 (tested in a mixture with another compound)	>57	i
CC(=O)N1CCN(c2ccc(N=Cc3c(O)n(-c4ccc(Cl)cc4)c(=O)[nH]c3=O)cc2)CC1	>57	i
Cn1c(=O)c2nncnc2n(C)c1=O	>57	i
CCCN[C@@H]1CCc2c(OC)cccc2[C@@H]1C	/	i
O=C1C2CCN(CC2)[C@@H]1Cc1ccc2ccccc2c1O	>26	/
Nc1nnnn1CCO	/	i
CCCCN1C(=O)NC(=O)C2(Cc3c(nc4ccccn4c3=O)N3CCc4ccccc4C32)C1=O (stereo not drawn)	/	i
CN=C=S	/	i
COC(=O)c1ccccc1OP1(=O)COc2ccccc2OC1	>57	i
CCOC(=O)c1c(-c2ccccc2)oc2ccc(OC(=O)N(C)C)cc12	/	i
CNC[C@H](O)c1ccc(O)cc1	/	i
CCN(CC)C(=O)N[C@@H]1C=C2c3cccc4[nH]cc(c34)C[C@@H]2N(C)C1	/	i
CCN1C[C@]2(C)CC[C@H](OC)[C@@]34[C@@H]2[C@H](OC(C)=O)[C@]2(OCO[C@@]25C[C@@H](OC)[C@@H]2C[C@@]3(O)[C@H]5[C@@H]2OC)[C@H]14	/	i
Cc1cc(OC(=O)c2ccco2)c2c3c(c(=O)oc2c1)CCC3	/	i
COc1ccc(Nc2ncc(C(=O)N3CCC4(CC3)OCCO4)c3ccccc23)cc1	>57	i
CCC(C)NC(=O)c1c(N)n(CC2CCCO2)c2nc3ccccc3nc12 (stereo not drawn)	>57	i
CC(=O)NC1CC2CCC(C1)N2 (stereo not drawn)	>57	i
C[N+]1=Cc2cc3c(cc2CC1)OCO3	/	i
O=C(Nc1ccccc1)N1CC2(CCN(C(=O)Oc3ccccc3)CC2)C1	/	i
CC(=O)[C@@H]1CC[C@H]2[C@H]3CC[C@H]4C[C@@H](O)CC[C@]4(C)[C@@H]3CC[C@]12C	/	i
Cc1ccc(CCN2CC(C(=O)N3CCC4(CC3)OCCO4)CC2=O)cc1 (stereo not drawn)	>57	i
O=C(c1ccncc1)N1CCC[C@@]2(CCN(Cc3nccs3)C2)C1	/	i
O=C1NC(=O)C2(Cc3c(nc4ccccn4c3=O)N3CCCCCC32)C(=O)N1Cc1ccccc1 (stereo not drawn)	>57	i
O=C(CN1CCN(CCO)CC1)Nc1ccc(Cl)cc1C(=O)c1ccccc1	>26	/
CC(=O)CC(C)(C)n1c[n+](C)nn1	>11	/
C=CC=O	/	i
C[N+]1(C)C2CC(OC(=O)C(CO)c3ccccc3)CC1[C@@H]1O[C@H]21 (stereo partly drawn)	/	i
O=C(CN1C2CCC1CC(O)(c1cccnc1)C2)Nc1ccc2c(c1)OCO2 (stereo not drawn)	>57	i
CC(C)(C)C(=O)CP(=O)(O)O	/	i
O=C(Nc1ccc(OC(=O)N2CCCC2)cc1)N1CCOCC1	>57	i
COP(=S)(OC)Oc1ccc(SC)c(C)c1	/	i
C[As+](C)(c1ccc(Br)c([N+](=O)[O-])c1)c1ccc(Br)c([N+](=O)[O-])c1.O=[N+]([O-])O	/	i
C=Cn1c(P(=S)(N2CCOCC2)N2CCOCC2)cc2c1CCCC2	i	i
ClC(Cl)=C(c1ccc(Cl)cc1)c1ccc(Cl)cc1	/	i
c1ccc(Nc2ccc(Nc3ccccc3)cc2)cc1	/	i
CC(C)[C@H]1C(=O)N2CCC[C@@H]2[C@]2(O)O[C@@](NC(=O)[C@H]3C=C4c5cccc6[nH]cc(c56)C[C@H]4N(C)C3)(C(C)C)C(=O)N12	/	i
Nc1nc(N)c(N=Nc2ccc([As](=O)(O)O)cc2)c(=O)[nH]1	/	i
O=[N+]([O-])c1ccc(F)c([N+](=O)[O-])c1	/	i
CNc1ccc2oc(C[C@H]3O[C@]4(CC[C@H]3C)O[C@H]([C@H](C)C(=O)c3ccc[nH]3)[C@H](C)C[C@H]4C)nc2c1C(=O)O	/	i
COCCCn1c(N)c(C(=O)NCCC(C)C)c2nc3ccccc3nc21	>57	i
c1ccc(N2CC3(CCNCC3)C2)cc1	/	i
CCOCC(=O)NC1CCSC1=O (stereo not drawn)	>57	i
Cc1cc(OCc2nn[nH]n2)c2c3c(c(=O)oc2c1)CCC3	/	i
CC(=O)c1c(C)n(CCCOC(C)C)c2ccc(O)cc12	>57	i
COc1ccc(CC2C(=O)NC(=O)N(c3ccccc3)C2=O)c(OC)c1 (stereo not drawn)	/	i
C=C(C)[C@H]1[C@H]2OC(=O)[C@@H]1[C@]1(O)C[C@H]3O[C@]34C(=O)O[C@H]2[C@@]14C	/	i
OC(CNC1CCCCC1)c1ccccc1 (stereo not drawn)	/	i
CCSP1(=S)N=C(N2CCOCC2)C(C#N)=C2CCCN21 (stereo not drawn)	>57	i
COC(=O)[C@@H]1C[C@@]1(C)[C@@H](NP(=O)(c1ccccc1)c1ccccc1)c1ccccc1	/	i
COCCCn1c(N)c(C(=O)OCCOC)c2nc3ccccc3nc21	>57	i
CC(C)(C)c1cc(C#N)cc(Br)c1OP(=O)(Oc1c(Br)cc(C#N)cc1C(C)(C)C)c1ccccc1	/	i
O=C(O)c1cc2ccccc2oc1=O	/	i

Given with two lines to a compound: two of the compounds above.
Values run as follows: PK Bst | YjeE inh
> Cc1cc(OCc2nn[nH]n2)c2c3c(c(=O)oc2c1)CCC3
 : / | i
> CC(=O)c1c(C)n(CCCOC(C)C)c2ccc(O)cc12
 : >57 | i

(list continues)
SMILES	PK Bst	YjeE inh
CC(C)[C@@]1(NC(=O)[C@@H]2C[C@H]3c4cccc5[nH]cc(c45)C[C@@H]3N(C)C2)O[C@]2(O)[C@H]3CCCN3C(=O)CN2C1=O	/	i
CC(=O)Nc1cc(C(=O)N2CCC3(CC2)OCCO3)ccc1S(=O)(=O)c1ccc(C)cc1	>57	i
N[C@@H](CP(=O)(O)O)C(=O)O	/	i
CC1(C)COC(Nc2ccc(Cl)cc2)=N1	>57	i
C[C@@H](Cc1ccc(OCC(=O)O)cc1)NC[C@H](O)c1cccc(Cl)c1	/	i
C[N+](C)(C)CCOC(=O)CBr	/	i
Nc1ccnn1C1CCNCC1	>57	i
COc1cc(OC)c(OC)cc1C=O	/	i
O=C(NC[P+](=O)O)OCc1ccccc1	>57	i
Cn1c(O)c(/C=N/c2ccccn2)c(=O)n(C)c1=O	>57	i
OC1(c2cccnc2)CC2CCC(C1)N2Cc1nnnn1Cc1ccccc1 (stereo not drawn)	>57	i
C(CCOCC1CO1)COCC1CO1 (stereo not drawn)	/	i
N#Cc1cccc(NC(=O)N2CCCC3(CCN(C(=O)Oc4ccccc4)CC3)C2)c1	/	i
O=C1C[C@H]2OCCC=C3CN4CC[C@@]56c7ccccc7N1[C@@H]5[C@H]2[C@H]3C[C@@H]46	/	i
O=C(Cn1cnc2ccccc2c1=O)NCC(=O)N1CCC2(CC1)OCCO2	>57	i
Cc1cc(C)n2nc(SC(C)C(=O)N3CCC4(CC3)OCCO4)nc2n1 (stereo not drawn)	>57	i
COc1ccccc1N=Cc1c(O)n(C)c(=O)n(C)c1=O	/	i
Cc1cc(OCC(=O)OC(C)(C)C)c2c3c(c(=O)oc2c1)CCC3	/	i
O=[N+]([O-])c1c(Cl)c(Cl)c(Cl)c(Cl)c1Cl	/	i
O=C(O)[C@H]1C[C@@H]1[C@H](NP(=O)(c1ccccc1)c1ccccc1)c1ccccc1	/	i
C/C=C(\C)C(=O)O[C@@H]1C(C)=C2[C@H]([C@@H]1OC(=O)CCCCCCC)[C@@](C)(OC(C)=O)C[C@@H](OC(=O)CCC)[C@@]1(O)[C@H]2OC(=O)[C@]1(C)O	/	i
COC(=O)C(O)(c1cn(C)c2ccccc12)C(F)(F)F (stereo not drawn)	>57	i
C[C@]1(O)CC[C@H]2[C@@H]3[C@@H](O)CC4=CC(=O)CC[C@@]4(C)[C@H]3CC[C@]21C	/	i
COP(=O)(OC)C(O)C(Cl)(Cl)Cl (stereo not drawn)	>26	/
Cc1nnc2ccc(-c3cccc(C(F)(F)F)c3)nn12	/	i
Cc1ccc(S(=O)ON2CCC(C(=O)O)(c3ccccc3)CC2)cc1 (stereo not drawn)	/	i
c1ccc(C[C@@H](c2ccccc2)N2CCCCC2)cc1	/	i
CN1CCCC2(CCN(C(=O)c3ccco3)CC2)C1	/	i
CN1C[C@@H](CNC(=O)OCc2ccccc2)C[C@H]2c3cccc4c3c(cn4C)C[C@@H]21	/	i
C[C@H]1CCC/C=C/C2C[C@H](O)CC2[C@H](O)/C=C/C(=O)O1 (stereo partly drawn)	>11	/
CNCC(O)c1cccc(OC(=O)c2ccccc2C)c1 (stereo not drawn)	>57	i
O=c1cc(C2CCNCC2)[nH][nH]1	>57	i
O=C(O)CCCc1ccc(N(CCCl)CCCl)cc1	>26	i
C[N+]1(C)[C@@H]2CC[C@H]1CC(OC(=O)c1c[nH]c3ccccc13)C2 (stereo partly drawn)	/	i
Cc1oc2ccc(OC(=O)N(C)C)cc2c1C(=O)OC(C)C	>57	i
CCOP(=S)(OCC)c1ccc(N(C)C)cc1	>57	i
O=C(Oc1ccccc1)N1CCC[C@@]2(CCN(Cc3cc(C(F)(F)F)cc(C(F)(F)F)c3)C2)C1	/	i
C=C1[C@@H]2CC[C@H]3[C@@]4(C)C[C@@H](O[C@@H]5O[C@H](CO)[C@H](OS(=O)(=O)O)[C@@H](OS(=O)(=O)O)[C@@H]5OC(=O)CC(C)C)C[C@@H](C(=O)O)[C@H]4CC[C@@]3(C2)[C@H]1O	/	i
CC[C@@](O)(C(=O)O)c1cc2n(c(=O)c1CO)Cc1cc3ccccc3nc1-2	/	i
COc1ccc(-c2nc(CSCC(=O)N3CCC4(CC3)OCCO4)c(C)o2)cc1OC	>57	i
CCCc1cc2c(n1Cc1ccc(C)cc1)C(C)C1CN(C(=O)c3ccccc3)C(C)(C(=O)OC)C21 (stereo not drawn)	/	i
C=CCn1c(O)c(C(C)=NC2CC2)c(=O)[nH]c1=O	>57	i
Cc1ccc(O)c(C)c1	/	i
COC(=O)c1ccccc1C(=O)OC	/	i

From PubChem
